# Bioassay records: PubChem, ICCB-Longwood Screening Facility, Harvard Medical School
# HCMV UL50-53 inh: inhibitors of HCMV UL50-UL53 nuclear egress complex interaction; HTRF UL50-UL53 interaction, normalized percent inhibition; inhibition, % (no concentration beside the values); actives 0.15% (n = 190,000);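 active = both replicates at 50% or more, plus weaker picks with an unusually low signal ratio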;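 also: stock transfer was 100 nL into about 20 µL; 0% = negative control wells and 100% = wells with untagged competitor protein; inactives centre near -12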
# Sa growth 42C: S. aureus growth inhibition; S. aureus RN4220 growth, OD600, 20 h, 42 °C; stronger effect = lower value; relative growth, % (no concentration beside the values); actives 0.53% (n = 170,000);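 active = growth at 42 °C up to 50% and 20 or more points under that at 30 °C, or under 10% at both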;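 also: 300 nL library stock went into each well; scaled to the means of positive and negative controls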
# GIV-Gai inh: inhibitors of GIV GBA-motif binding to rat Galpha-i3. AID 1224905. percent of control (FP), % (no concentration beside the values). Galpha-i3/FITC-GIV peptide fluorescence polarization, 90 min; stronger effect = lower value; scaled: aluminum fluoride 0%, vehicle 100%. actives 0.42% (n = 210,000). P08753;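 active = replicate mean at 85% of control or lower, very high polarization wells dropped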;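 also: wells of about 15 µL received 100 nL stock; the first replicate is given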
# Target sequence (P08753 whole entry, looked up): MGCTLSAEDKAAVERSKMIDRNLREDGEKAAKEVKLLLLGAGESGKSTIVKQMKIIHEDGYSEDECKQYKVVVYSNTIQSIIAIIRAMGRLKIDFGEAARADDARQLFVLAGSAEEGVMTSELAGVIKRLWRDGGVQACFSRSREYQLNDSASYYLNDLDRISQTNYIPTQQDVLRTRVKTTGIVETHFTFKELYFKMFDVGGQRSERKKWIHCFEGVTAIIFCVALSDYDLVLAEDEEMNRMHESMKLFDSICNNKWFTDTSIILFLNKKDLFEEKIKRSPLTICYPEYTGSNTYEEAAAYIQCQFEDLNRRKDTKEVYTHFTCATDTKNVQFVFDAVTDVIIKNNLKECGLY
# Sa growth 42C second temp: second read-out of Sa growth 42C, no call of its own (marks repeat the call); relative growth, %; measured here: growth at 30 °C;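 optical density after 20 h as mean of two plates; 100% = untreated growth and lower means inhibition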
# Numbers without * were called inactive; / = no result given; & = joins results of further samples. The order is random; 0.85% or so of the library scored in one or more.
SMILES,HCMV UL50-53 inh,Sa growth 42C,Sa growth 42C second temp,GIV-Gai inh
CCN1/C(=C2\C(=O)N(c3ccccc3)N=C2C)C=Cc2cc(OC)ccc21,-91,91,87,102
Cc1ccc(-n2nnnc2SCC(=O)N2Cc3ccccc3CC2C(=O)O)cc1 (stereo not given),-4,99,93,/
CCc1ccc(NCc2cc3ccc(OC)cc3n(CC(=O)Nc3ccc(C)c(Cl)c3)c2=O)cc1,/,86,86,101
CCOC(=O)c1c(-c2ccccc2)oc2ccc(N(C(C)=O)S(=O)(=O)c3ccc(OC)cc3)cc12,/,90,93,99
O=C(c1ccc2c(c1)N(Cc1ccccc1)C(=O)CS2=O)N1CCCCC1 (stereo not given),/,105,95,100
Cc1ccc(-n2c(CCC(=O)O)ccc2-c2cccs2)cc1C,-33,103,63,105
N#Cc1ccc(-c2ccccc2)nc1SCCN1CCOCC1,-20,75,93,99
COC(=O)c1scc(-c2ccc(C)cc2)c1S(=O)(=O)N1CC=C(c2ccccc2)CC1,4,/,/,104
O=C(Cc1csc(-c2ccccc2)n1)NC1CC1,-26,106,94,/
O=C(O)c1ccccc1SCC(=O)N1CCOCC1,13,97,104,102
CC(C)CCN1CC(C(=O)N2CCN(c3ccc(F)cc3)CC2)CC1=O (stereo not given),-1,117,86,97
COc1ccc(C(=O)CSc2nc(N)cc(=O)[nH]2)cc1OC,-17,90,81,/
CSc1nn(CC(=O)Nc2ccc(C)cc2C)c(N)c1S(=O)(=O)c1ccc(Cl)cc1,2,102,88,103
c1ccc(-n2cccc2)c(N2CCCCC2)c1,-12,94,97,104
Cc1ccccc1S(=O)(=O)Cc1ccc(C(=O)N2CCc3ccccc32)o1,/,94,90,101
NC(=O)c1cc2ccccc2oc1=O,-50,92,98,/
COc1ccccc1NC(=O)c1ccc2[nH]c(C)cc(=O)c2c1,-4,111,86,103
O=C(Nc1ccccc1)C1=Cc2cc(Br)ccc2OC=C1,21,/,/,98
O=c1[nH]c(NC2CCN(S(=O)(=O)c3ccccc3C(F)(F)F)CC2)nc2c1CCCC2,9,106,87,103
CCN1CCN(c2oc(COc3ccc(Cl)cc3)nc2C#N)CC1,-19,94,92,102
Cc1ccc(NC(=O)Cn2c(=O)n(CC3CCC(C(=O)NC(C)C)CC3)c(=O)c3sccc32)cc1 (stereo not given),/,107,89,94
COCc1nnc(NC(=O)C2CC(=O)N(CCc3ccc(F)cc3)C2)s1 (stereo not given),-11,100,71,104
CCOC(=O)c1c(C)c(S(=O)(=O)NC2CC2)c(C)n1C,-17,/,/,105
O=C1/C(=C/c2c[nH]c3ccccc23)CSc2ccccc21,-27,88,84,120
Cc1c(Br)c(C(F)(F)F)nn1CC(=O)Nc1cc(C(F)(F)F)ccc1Cl,-23,/,/,94

# Part of the list above, with values under each structure.
# Every second line gives: HCMV UL50-53 inh | Sa growth 42C | Sa growth 42C second temp | GIV-Gai inh
> O=C(Nc1ccccc1)C1=Cc2cc(Br)ccc2OC=C1
 : 21 | / | / | 98
> Cc1ccccc1S(=O)(=O)Cc1ccc(C(=O)N2CCc3ccccc32)o1
 : / | 94 | 90 | 101
> O=C(c1ccc2c(c1)N(Cc1ccccc1)C(=O)CS2=O)N1CCCCC1 (stereo not given)
 : / | 105 | 95 | 100

# Continuation:
SMILES,HCMV UL50-53 inh,Sa growth 42C,Sa growth 42C second temp,GIV-Gai inh
CCOc1ccccc1NC(=O)Cn1cc(C(=O)c2ccc(Cl)cc2)c(=O)c2ccc(C)nc21,/,78,94,107
O=C(CC1CC2CCC1C2)NC(c1ccccc1)c1ccccc1 (stereo not given),/,104,94,107
O=C(Cn1ncc2ccc(Cl)cc21)NCc1ccccc1,-6,93,77,100
N#Cc1ccc(CSc2ncn[nH]2)cc1,-13,100,86,/
CCc1cc(C)cc(OCCn2cc(C=C3C(=O)NC(=S)NC3=O)c3ccccc32)c1,-34,/,/,105
CCOC(=O)c1c(-c2ccc(C)cc2)csc1NC(=O)c1ccc(C(C)(C)C)cc1,-14,99,100,102
Cc1cc(C)cc(NC(=O)CN2CCN(S(=O)(=O)c3ccccc3)CC2)c1,8,106,96,/
COc1cccc(NC(=O)CCNS(=O)(=O)c2ccc3c(c2)oc(=O)n3C)c1,-44,99,87,105
CCN(CC)CCCC(C)Nc1c2ccc(Cl)cc2nc2ccc(OC)cc12 (stereo not given),-62&-82&-35&-32&-52,101&91,88&78,44*
CC(C)(CC(=O)O)CC(=O)N1CCN(c2ccccn2)CC1,2,96,90,96
CN(C)S(=O)(=O)c1ccc(C(=O)NCCC23CC4CC(CC(C4)C2)C3)cc1,/,110,84,107
Cc1ccc(/C(O)=C2/C(=O)C(=O)N(CCCN(C)C)C23C(=O)N(C)c2ccccc23)cc1F (stereo not given),-11,87,92,103
CCn1nc(C)c(CCN(C)C(=O)Nc2cc(Cl)ccc2C)c1C,/,84,88,102
CCOC(=O)/C(=C\c1cccs1)C(=O)CN1C(=O)c2ccccc2S1(=O)=O,-38,97,91,/
CC(C)C(NS(=O)(=O)c1ccccc1)C(=O)N1CCC(c2nc(-c3ccccc3)no2)CC1 (stereo not given),-5,/,/,104
O=C(Cc1ccccc1)NC1CCN(Cc2ccccc2)CC1,-4,111,81,105
Cc1cc(C)c2c(=O)cc(C(=O)Nc3ccccc3Cl)oc2c1,-24,104,85,105
Cc1ccc(C(=O)CSc2ncn[nH]2)c(C)c1,-4,84,85,99
CCCc1nn2c(=O)cc(COC(=O)c3ccc(NC(=O)COc4ccccc4F)cc3)nc2s1,/,111,97,94
CCCNC(=O)C1CCN(c2ncnc3c2nc2n3CCCCC2)CC1,/,112,96,102
O=C(COCc1cc(-c2cccs2)on1)NCc1ccc(Cl)cc1,/,93,92,104
CCC(CO)NC(=S)Nc1ccsc1C(=O)OC (stereo not given),-10,82,77,103
COc1ccc(NC(=O)CSc2cn(CC(=O)N3CCCCC3)c3ccccc23)c(OC)c1,/,115,92,105
Clc1ccc(CSc2cc(Cl)ncn2)cc1,-20,/,/,101
COc1ccc(/C=N/NC(=O)Nc2nonc2N)cc1,-34,96,89,98

# Five records drawn at random from the list so far:
SMILES,HCMV UL50-53 inh,Sa growth 42C,Sa growth 42C second temp,GIV-Gai inh
CCc1cc(C)cc(OCCn2cc(C=C3C(=O)NC(=S)NC3=O)c3ccccc32)c1,-34,/,/,105
CCCNC(=O)C1CCN(c2ncnc3c2nc2n3CCCCC2)CC1,/,112,96,102
CCC(CO)NC(=S)Nc1ccsc1C(=O)OC (stereo not given),-10,82,77,103
CC(C)C(NS(=O)(=O)c1ccccc1)C(=O)N1CCC(c2nc(-c3ccccc3)no2)CC1 (stereo not given),-5,/,/,104
COc1ccc(/C=N/NC(=O)Nc2nonc2N)cc1,-34,96,89,98

# (further entries)
SMILES,HCMV UL50-53 inh,Sa growth 42C,Sa growth 42C second temp,GIV-Gai inh
COc1ccc(Nc2ncnc3sc(C)c(S(=O)(=O)N4CCCCC4)c23)c(OC)c1,-8,/,/,105
COC(=O)c1ccc(NC(=O)c2ccccc2C)cc1OC,-8,/,/,98
CCC(=O)N1CCc2cc(S(=O)(=O)NCCC(=O)NCc3ccc(OC)cc3)ccc21,-24,112,90,109
COc1ccc(NC(=O)C2CCCN(S(=O)(=O)c3ccc4c(c3)CCCN4C(C)=O)C2)cc1 (stereo not given),/,88,101,110
COCCn1c(C)nc2cc(C)c(C)cc21,-6,/,/,103
CCOC(=O)/C=C1\SCC(=O)N1CCSc1nncn1-c1ccccc1,-16,85,87,/
CCc1ccc(Nc2nc(N)nc(-c3oc4ccccc4c3C)n2)cc1,3,111,96,102
CCC(C(=O)Nc1cccc(OC)c1)n1nc(-c2cc(C)ccc2C)ccc1=O (stereo not given),-1,/,/,95
C=CCNS(=O)(=O)c1cccs1,/,74,87,115
CC1=C(C(=O)OCCOc2ccccc2)C(c2ccc3c(c2)OCO3)C2=C(CC(c3ccccc3)CC2=O)N1 (stereo not given),-18,/,/,104
COc1ccc(-n2c(=O)c3c(c4cc(OC)ccc4n3C)n(CC(=O)NCC3CCCO3)c2=O)cc1 (stereo not given),/,111,91,103
COc1ccccc1CC(=O)Nc1ccc2nc(N3CCC(C)CC3)cc(C)c2c1,-8,119,88,96
Nc1ncccc1C(=O)OCCN1C(=O)c2ccccc2C1=O,-27,104,98,/
Cc1cc(Br)ccc1OCC(=O)NCCC1=CCCCC1,-6,92,95,/
Cc1nc2nc3c(c(Nc4cccc(F)c4)n2n1)CCCC3,-27,/,/,104
CCN(CC)C(=O)Cn1nnc2sc(-c3ccccc3)cc2c1=O,-61,92,55,101
COCCOC(=O)C1=C(C)NC2=C(C(=O)CC(C)(C)C2)C1c1coc2ccccc2c1=O (stereo not given),-20,/,/,102
CC(=O)Nc1ccc(-n2sc3c(c2=S)-c2cc(C)ccc2NC3(C)C)cc1,/,90,75,98
Cc1ccc(-c2nn(CC(=O)NCc3ccccc3)c3c2cnc2ccc(F)cc23)cc1C,/,104,90,96
CC1(C)CC(=O)C2=C(C1)Nc1ccccc1N(C(=O)Cc1ccccc1)C2c1ccc([N+](=O)[O-])cc1 (stereo not given),-25,/,/,112
Cc1cc(C(=O)O)no1,-7,78,86,/
COc1ccc(CN=C(C)c2c(O)[nH]c(=O)[nH]c2=O)cc1,0,97,92,/
CCOC(=O)/C=C(\C)NC1CC(C)(C)NC(C)(C)C1,8,107,95,/
Cc1ccc(-n2c(-c3ccc(Cl)cc3)cn3c4c(=O)n(C)c(=O)n(C)c4nc23)c(C)c1,-20,/,/,102
Cn1c(-c2ccccc2)cnc1NC(=O)c1ccc(F)cc1,-3,93,41,100

# Going on with the list.
SMILES,HCMV UL50-53 inh,Sa growth 42C,Sa growth 42C second temp,GIV-Gai inh
OCCNc1nc(N2CCOCC2)ncc1F,9,102,106,103
Cc1noc(C)c1COc1ccc(C(=O)OCC(=O)NC2CCCc3ccccc32)cc1 (stereo not given),-36,104,91,/
O=C(NCCc1nnc2ccc(SCC(=O)N3CCc4ccccc43)nn12)c1ccccc1,-13,96,89,97
O=C(O)C1CC(=O)N(Cc2ccncc2)C1 (stereo not given),-4,95,87,102
CC1CC(C)N(C(=O)c2cc(-c3ccc(F)cc3)no2)C(C)C1 (stereo not given),/,94,97,104
O=C(CSc1nc(-c2ccccc2)nc2cc(=O)[nH]n12)Oc1ccc(Cl)cc1,14,/,/,100
O=C(OCCN1C(=O)c2cccc3c(N4CCOCC4)ccc(c23)C1=O)c1ccc(Cl)cc1,-12,/,/,126
Cc1ccc(-c2noc(-c3cc(-c4ccc(C)c(C)c4)n[nH]3)n2)cc1,-16,/,/,117
O=C(NCc1ccccc1)c1cccc(-n2cnc3cccnc32)c1,-3,/,/,95
Cn1c(=O)c2ccc(C(=O)NC3CCCC3)cc2n2c(SCC(=O)NC3CCCCC3)nnc12,-35,/,/,108
c1ccc(Oc2nc3ccccc3nc2N2CCCC2)cc1,-13,/,/,108
CCCN(CCC)C(=O)c1c(C)[nH]c(C(=O)OCC)c1C,-40,92,86,104
CC1=C(C(=O)Nc2cc(Cl)ccc2C)C2(CCCCC2)OC1=O,-35,98,90,104
CCOC(=O)c1ccccc1NC(=O)Cn1cc(C(=O)c2ccc(CC)cc2)c(=O)c2ccc(C)nc21,-3,/,/,112
COc1ccc(NC(=O)CCc2c(C)c3c(C)nn(-c4cccc(F)c4)c3n(C)c2=O)cc1OC,-16,99,92,109
CC1=CC(=C(C#N)C#N)C=C(C)N1CC1CCCO1 (stereo not given),-28,97,81,/
O=C(c1ccco1)c1cc(-c2nc3ccccc3[nH]2)c(-c2ccco2)n2c1nc1ccccc12,-14,95,106,/
Cc1nonc1OCC(C)(COc1nonc1C)NS(=O)(=O)c1ccccc1,6,103,99,102
Nc1c(C(=O)c2cc(F)ccc2O)cnn1-c1ccc(Cl)cc1,2,97,94,/
COc1ccc(NC(=O)c2ccnc(Nc3ccc(F)c(Cl)c3)c2)cc1,5,/,/,96
O=C(N/N=C/c1cn(-c2ccccc2)nc1-c1cc2ccccc2o1)c1ccncc1,-10,94,92,/
O=C1C2CCc3[nH]c4ccccc4c3C2C(=O)N1Cc1ccccc1 (stereo not given),18,107,94,104
CCC(C)Nc1cc(C)nc2c(-c3ccc(F)cc3)c(C(F)(F)F)nn12 (stereo not given),-15,/,/,97
COc1cccc(CNC(=O)c2noc3c2CSc2ccccc2-3)c1,-1,/,/,101
Cc1ccc2c(cnn2C(=O)CCCC(=O)NC2CCCC(C)C2C)c1 (stereo not given),/,101,96,103

# Further results.
SMILES,HCMV UL50-53 inh,Sa growth 42C,Sa growth 42C second temp,GIV-Gai inh
COc1ccccc1N1CCN(C(=O)c2cccn2C)CC1,-18,123,87,/
CN1C(=O)CC(C(=O)NCCc2ccccc2)SC1=Nc1cccc(C(F)(F)F)c1 (stereo not given),-20,/,/,103
Cc1noc2ncnc(N3CCCC(C(=O)O)C3)c12 (stereo not given),11,/,/,98
CNc1ccc(-c2nc(-c3ccccn3)no2)cc1[N+](=O)[O-],-47,95,87,97
Cc1cccc(C)c1NC(=O)c1cc(-c2ccccn2)n[nH]1,-14,/,/,102
CCN(c1ccccc1)S(=O)(=O)c1nnc(NC(=O)c2ccccc2)s1,-9,85,82,99
Cc1ccc(C)c(N2CCN(C(=O)c3ccc4[nH]c(C)c(C)c4c3)CC2)c1,/,87,99,103
Cc1ccc(N2C(=NC(=O)CCC(=O)O)SC3CS(=O)(=O)CC32)cc1C (stereo not given),-9,96,90,102
